From PubChem BioAssay
PMP22 txn: modulators of PMP22 gene transcription in S16 Schwann cells. S16 Pmp22-F2sN Schwann cells (luciferase reporters placed in the Pmp22 gene), FLuc/NLuc coincidence luminescence, 24 h. Potency, µM (doses to about 57.5 µM), without a hit: at the highest dose activity change, negative = inhibition, most hits filed as inhibitors. hit rate 2% among 43,000; active = clear falling dose curves in both reporters; inconclusive = both reporters move, but less clearly or upward; inactive = either reporter flat; the % is the NLuc reporter signal; note: % is set by controls: 0 for no effect and ±100 for the full control effect; some results filed as inactive show a strong effect at the top dose
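Rat S16 Pmp22-F2sN cells, 500-1,000/well in phenol red-free DMEM + 10% FBS, compound-treated 24 h (37C, 5% CO2). Luminescence: FLuc read, Stop&Glo added, NLuc read.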
HTT prom inh: HTT promoter inhibition; HEK293 HTT promoter firefly luciferase reporter (activity 0% = vehicle and -100% = no light), 24 h; Potency, µM (series often up to 57.5 µM), inactives show at the highest dose activity change, negative = inhibition, actives largely listed as inhibitors; hit rate 0.93% among 48,000; AID 1508623; active = well fitted inhibition curve with a large enough effect; inconclusive = small, poorly fitted or top-dose-only effect; inactive = no such curve, though single readings can be large or run the other way; note: nearly all actives have a fitted effect of over 50% in size
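Firefly luciferase readout (Dual-Glo, 10 min RT) after 24 h, 37 °C compound exposure (final up to 57.5 uM) of HEK293 reporter cells cultured 24 h beforehand; PTC124 at 50 uM final as control inhibitor; activity scaled vehicle 0%, zero RLU -100%.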
An asterisk follows results filed as active; ? = inconclusive; / = no result given; & = joins results of further samples; [ ] = remark or other dose. Potency is the fitted concentration of half-maximal effect.

entry	mol	PMP22 txn	HTT prom inh
1	CCCCNC(=O)C1CCN(S(=O)(=O)CCC)CC1	1%	-6%
2	COc1ccc(S(=O)(=O)NCC(c2ccco2)S(=O)(=O)c2cccs2)cc1OC (stereo not given)	?	-15%
3	O=C(NCc1cccc(Cl)c1)c1ccc2nc(N3CCCCC3)sc2c1	1%	?
4	O=c1n(Cc2ccc(Cl)cc2)c2ccccc2c2nc(-c3ccccc3)nn12	-34%	-12%
5	COc1ccc(Cn2c(=O)c3oc4ccccc4c3n(CC(=O)Nc3ccc(F)cc3F)c2=O)cc1	?	5%
6	O=C1CCSC2(C(=O)N(Cc3ccc(F)cc3)c3ccccc32)N1c1ccc(Cl)cc1 (stereo not given)	?	?
7	COc1cc(-c2nc(Cn3nnc(C(=O)Nc4ccccc4C)c3C)c(C)o2)cc(OC)c1OC	?	-5%
8	CCS(=O)(=O)N1CC(=O)N(c2ccc(Cl)cc2C)C(C)(C(=O)NC2CCCCC2)C1 (stereo not given)	-6%	9%
9	Cn1c(=O)c2c(-c3ccc(Cl)cc3)ccnc2n(C)c1=O	-25%	6%
10	Fc1ccc(N2CCN(Cc3nnc(-c4ccccc4Cl)o3)CC2)cc1	-30%	-29%
11	COc1ccc(Cn2ccc3nc(C)c(C(=O)N4CCN(c5cc(C)ccc5C)CC4)cc3c2=O)cc1	?	?
12	CC(C)Cc1nn2c(=O)cc(COC(=O)c3ccccc3NC(=O)c3cccs3)nc2s1	7%	-27%
13	COc1ccc(-c2[nH]c3ccccc3c2SCCNC(=O)c2cc(OC)c(OC)c(OC)c2)cc1	-2%	?
14	CC(C)c1ccccc1NC(=O)CSc1nnc(COc2ccccc2Cl)o1	-4%	-36%
15	Cc1cc(=O)[nH]c2nnc(SCC(=O)NC(C)(C)C)n12	-4%	-6%

The final six entries of the section above come first, to join the parts:
entry	mol	PMP22 txn	HTT prom inh
10	Fc1ccc(N2CCN(Cc3nnc(-c4ccccc4Cl)o3)CC2)cc1	-30%	-29%
11	COc1ccc(Cn2ccc3nc(C)c(C(=O)N4CCN(c5cc(C)ccc5C)CC4)cc3c2=O)cc1	?	?
12	CC(C)Cc1nn2c(=O)cc(COC(=O)c3ccccc3NC(=O)c3cccs3)nc2s1	7%	-27%
13	COc1ccc(-c2[nH]c3ccccc3c2SCCNC(=O)c2cc(OC)c(OC)c(OC)c2)cc1	-2%	?
14	CC(C)c1ccccc1NC(=O)CSc1nnc(COc2ccccc2Cl)o1	-4%	-36%
15	Cc1cc(=O)[nH]c2nnc(SCC(=O)NC(C)(C)C)n12	-4%	-6%
16	CC(C)C(=O)Nc1cccc(C(=O)Nc2nnc(C(F)(F)F)s2)c1	-12%	5%
17	CC(C)(C)OC(=O)N1CCC(c2c(C(=O)NCc3ccccn3)cnn2-c2ccccc2Cl)CC1	-23%	-5%
18	O=C(c1ccccc1)N1CCc2cc(CNS(=O)(=O)c3ccc(Cl)s3)ccc21	?	?
19	Cc1ccc(NC(=O)C2CCCN(c3cnccn3)C2)c(C)c1 (stereo not given)	-4%	17%
20	Cc1ccc(CNC(=O)CSc2nc3ccsc3c(=O)n2-c2ccc(Br)cc2)cc1	?	-12%
21	CCCc1cc(=O)[nH]c2nnc(SCC(=O)Nc3cccc(C)c3)n12	13%	-8%
22	O=C(CCSCCc1ccccn1)Nc1cc(F)ccc1F	?	-15%
23	Cc1ccc(OCc2cc(=O)n3c(-c4ccccc4)csc3n2)cc1	-52%	-1%
24	CCc1ccc(Oc2nc3c(C)cccn3c(=O)c2/C=C(\C#N)c2nc3ccccc3s2)cc1	-57%	-1%
25	COc1ccc(-c2nn(-c3ccc(F)cc3)c3c2cnc2ccc(F)cc23)cc1OC	0%	-4%
26	O=C(C=Cc1ccc(CN(CCO)CCc2c[nH]c3ccccc23)cc1)NO	/	186%[activator]
27	COc1ccc(CCNC(=O)CCCn2c(SCC(N)=O)nc3cc4c(cc3c2=O)OCO4)cc1OC	12%	-18%
28	COC(=O)c1ccc(NC(=O)CSc2nc(=O)[nH]c3c2CCCC3)cc1	2%	-9%
29	OC1(c2ccc(Cl)cc2)CCNCC1	/	3%
30	COc1ccc(N(C)C(=O)NCc2noc3ccc(C)cc23)c(OC)c1	13%	-5%
31	O=C(c1nc(-c2ccc(Cl)cc2)n2c1CCCCC2)N1CCN(c2ccc(F)cc2)CC1	?	-41%
32	CC(C)(C)OC(=O)N1CCC(c2c(C(=O)N3CCN(c4ccccn4)CC3)cnn2-c2ccc(F)cc2)CC1	13%	-25%
33	CCc1ccc(OCC(=O)NCC(c2ccc(OC)cc2)N2CCOCC2)cc1 (stereo not given)	-27%	-17%
34	O=C(Nc1ccc(NC(=O)c2ccc(Br)cc2)c(Cl)c1)c1ccc(Br)cc1	-8%	-16%
35	CCOc1ccc(CNC(=O)Cn2nc(C)c3nn(-c4ccc(Cl)cc4)c(C)c3c2=O)cc1	-10%	9%
36	CCCN1CCc2nc(SCC(=O)Nc3ccc(C)c(Cl)c3)[nH]c(=O)c2C1	?	35%[activator]
37	Cc1ccc(NC(=O)CSC2=Nc3ccccc3C3=NC(Cc4ccccc4)C(=O)N23)cc1C (stereo not given)	-19%	?
38	Cc1oc(-c2cccc(Cl)c2)nc1CSCC(=O)NCc1ccccc1Cl	-8%	?
39	O=C(CSc1nnc(-c2ccc(Br)cc2)n1-c1ccccc1)c1ccccc1	?	-10%
40	Cc1ccc(Cn2cc(S(=O)(=O)c3cccc(Cl)c3)c(=O)c3cc(F)c(N4CCOCC4)cc32)cc1	0%	-7%
41	CCN(C(=O)c1cn(CC(C)C)c(=O)c2cc(OC)c(OC)cc12)c1cc(OC)ccc1OC	-13%	-13%
42	CCc1ccc(NC(=O)c2cc(S(=O)(=O)NC3CCCC3)ccc2F)cc1	?	?
43	COc1ccc(CNC(=O)c2cnn3c(C)c(Cc4ccc(F)cc4)c(C)nc23)cc1	-2%	-15%
44	CCOc1ccc(C2c3c(oc4ccc(C)cc4c3=O)C(=O)N2Cc2ccc3c(c2)OCO3)cc1OC (stereo not given)	-17%	5%
45	Cc1ccc(CCNC(=O)C2CCN(c3nnc(C)c4c(C)n(-c5ccccc5)nc34)CC2)cc1	-20%	-26%
46	COc1cc(CNC(=O)c2ccc3nc(Cc4ccccc4)oc3c2)cc(OC)c1OC	?	14µM*
47	CCCCOc1ccc(C(=O)Nc2sc3c(c2C(=O)OCC)CCCCC3)cc1	-11%	-5%
48	Cc1ccc(NC(=O)c2cccc(N3CCCS3(=O)=O)c2)cc1C	-1%	52%[activator]
49	CCOC(=O)c1ccc(O)cc1	/	5%
50	COc1cc(NC(=O)Cn2c(=O)n(Cc3ccccc3OC)c(=O)c3cccnc32)cc(OC)c1	-46%	-27%
51	CCOC(=O)c1ccc(CN(Cc2ccc(F)cc2)S(=O)(=O)c2cc(C(=O)Nc3cccc(C(F)(F)F)c3)ccc2F)cc1	9%	?
52	CC(C)Nc1nc2c(S(=O)(=O)c3cccc(Cl)c3)nnn2c2ccsc12	?	0%
53	O=C(Nc1cccc(F)c1)C1CCN(c2nc3ccccc3[nH]2)CC1	0%	5%
54	Cc1c(C)c2c(c(C)c1OC(=O)c1cccnc1)CC[C@@](C)(CCC[C@H](C)CCC[C@H](C)CCCC(C)C)O2	/	3%
55	COc1ccc(-n2nc(C(=O)NCCCOC(C)C)c3c4ccccc4n(C)c3c2=O)cc1	?	-11%
56	Cc1ccc(SCC(=O)Nc2ccc(O)c(-c3nc4cc(C)ccc4o3)c2)cc1	?	72%[activator]
57	COc1cccc(Nc2nc3c(S(=O)(=O)c4cc(C)ccc4C)nnn3c3ccsc23)c1	?	-11%
58	COc1ccccc1CCNC(=O)C(=O)NCC(c1cccs1)S(=O)(=O)c1ccc(C)cc1 (stereo not given)	?	?
59	CCOC(=O)c1scc(-c2ccccc2)c1S(=O)(=O)Nc1cc(Cl)c(OC)cc1OC	-18%	-11%
60	CCOc1ccc(NC(=O)CN2CCN(S(=O)(=O)c3ccc(OC)cc3)CC2)cc1	-14%	-5%
61	CCN(Cc1ccccc1)C(=O)Cn1c(=O)n(-c2ccc(C)c(C)c2)c(=O)c2c(C)c(C)sc21	?	-37%
62	CCc1cccc(-n2c(=O)c3cccnc3n2CC(=O)Nc2ccc(F)c(C)c2)c1	-6%	-27%
63	CCN(c1ccccc1)S(=O)(=O)c1cc(Br)cc2c1N(C(=O)C1CC1)CC2	?	-16%
64	Cc1nc2nc(NC(=O)c3ccc(Cl)cc3)[nH]n2c(=O)c1Cc1ccccc1	-6%	-1%
65	O=C(c1cc2c(=O)oc3ccccc3c2s1)N1CCN(c2cccc(Cl)c2)CC1	3%	-11%
66	Cc1cccc2cc(-c3nc(-c4cccs4)no3)c(=O)oc12	-6%	20%
67	CCCCN(C)CCNC(=O)c1cc(-c2ccc(Cl)s2)nc2ccccc12	?	-15%
68	O=C(c1cc2c(=O)oc3ccccc3c2s1)N1CCN(c2ccccc2)CC1	-26%	0%
69	CCO[C@@H]1O[C@H](C(COCc2ccccc2)OCc2ccccc2)[C@H](OCc2ccccc2)[C@H]1O (stereo not given in full)	/	?
70	CCOc1ccc(NC(=O)Cn2cc(C(=O)c3ccccc3)c(=O)c3cc(OC)ccc32)cc1	-1%	-12%
71	O=C(Cn1cc(S(=O)(=O)N2CCN(c3ccccc3F)CC2)c2ccccc2c1=O)Nc1ccc(F)cc1Cl	0%	-21%
72	CCOc1ccccc1CNC(=O)C1CCN(C(=O)N2CCOc3ccc(Cl)cc32)CC1	-17%	?
73	Cc1ccc(NC(=O)CSc2nc3nccnc3c(=O)n2CCc2c[nH]c3ccccc23)c(C)c1	-27%	-14%
74	COc1cc(OC)cc(-c2nc3nc(C)c(CCC(=O)Nc4cc(C)cc(C)c4)c(C)n3n2)c1	-54%	-11%
75	Cc1ccc(NC(=O)CCNS(=O)(=O)c2cccc3nonc23)cc1Cl	-8%	-21%

Remaining list, next part.
entry	mol	PMP22 txn	HTT prom inh
76	Cc1oc2ncn(CC(C)C)c(=O)c2c1C(=O)N1CCN(c2ccccc2F)CC1	1%	-3%
77	COc1ccc(CNc2nc(-c3ccccc3)nn2C(=O)c2ccccc2OC)cc1	-110%	-2%
78	Cc1ccc2nc(N3CCN(c4cccc(Cl)c4)CC3)c(-n3nc(C)cc3C)nc2c1	5%	-6%
79	CCOC(=O)c1ccc(C#Cc2ccc3c(c2)C(C)(C)CCS3)nc1	/	-11%&6%
80	COc1cccc(NC(=O)Cn2c(=O)n(CC(=O)NCCc3ccccc3)c(=O)c3sccc32)c1	?	-11%
81	COc1ccc(NC(=O)CN2C(=O)COc3ccc(S(=O)(=O)N4CCOCC4)cc32)cc1Cl	-1%	-11%
82	COc1cc(NC(=O)CCc2nc3cccnc3n2Cc2cccs2)cc(OC)c1OC	-3%	?
83	COc1ccc(NC(=O)N(C(C)C)C2CCN(C(C)=O)CC2)c(OC)c1	10%	-21%
84	O=C(c1ccc2c(=O)n(CCc3ccccc3)c(=O)[nH]c2c1)N1CCN(c2ccc(Cl)cc2)CC1	?	?
85	CN(C)CCc1c[nH]c2ccc(CS(=O)(=O)N3CCCC3)cc12	/	-11%&1%
86	COc1ccc2c(c1)CC(C(=O)Nc1c(C)cc(C)cc1C)CO2 (stereo not given)	-6%	-14%
87	COc1ccccc1Cn1c(CNS(=O)(=O)c2c(C)cc(C)cc2C)nc2cccnc21	-13%	-11%
88	CCCCN(CC)CCCNC(=O)c1cn(CC)c2ccc(S(=O)(=O)N3CCc4ccccc4C3)cc2c1=O	?	-9%
89	CC(=O)Nc1ccc(S(=O)(=O)NCCc2csc3nc(-c4ccc(Cl)cc4)nn23)cc1	?	?
90	COc1ccc(C(=O)NCc2ccc3c(c2)CCN3C(C)=O)cc1OC	?	-24%
91	COc1ccc(CN2CCN(c3ncnc4sc5c(c34)CCCC5)CC2)cc1F	5.3µM*	?
92	O=c1oc2ccc3ccccc3c2cc1-c1nnc(Nc2ccc(Cl)cc2Cl)s1	0%	-2%
93	COc1ccc(N(C)C(=O)c2cc(S(=O)(=O)N3CCc4ccccc43)cn2C)c(OC)c1	?	-27%
94	COc1ccc(OC)c(CNC(=O)c2ccc3c(c2)c(C)c(C)n3Cc2ccc(Cl)cc2)c1	-50%	-23%
95	COc1cc(OC)c(NC(=O)c2c3c(nn2C)-c2ccccc2SC3)cc1Cl	?	?
96	COc1cccc(CNC(=O)Cn2nc(-c3ccc(C)cc3)ccc2=O)c1	-11%	-7%
97	Cc1cccc(Cn2c(=O)n(CCC(=O)NCCc3ccc(Cl)cc3)c(=O)c3sccc32)c1	-23%	-26%
98	O=S(=O)(c1ccc(Cl)cc1)c1nnn2c1nc(NC1CCCC1)c1sccc12	?	3%
99	CCc1ccccc1Nc1nn2c(=O)c3ccc(C(=O)Nc4cc(C)cc(C)c4)cc3nc2s1	7.3µM*	-4%
100	COc1ccc(NC(=O)CCc2nnc3n(CC(C)C)c(=O)c4ccccc4n23)cc1OC	-2%	-4%
101	CCOC(=O)c1cc2c(=O)n3ccccc3nc2n(CC(C)C)c1=NC(=O)c1c(-c2c(F)cccc2Cl)noc1C	?	-5%
102	CCOc1ccc(NC(=O)CSc2nc(-c3ccccc3)c3cc(OCC)ccc3n2)cc1	-1%	4%
